A1 inh: A1 inhibition | MEF A1-2A-BIM cells, caspase-Glo luminescence, 3 h; percent of clofoctol signal, DMSO as zero | caspase activation, % (concentration not given with the values) | 0.51% of 21,000 active;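 active = most replicate scores above 10, or exactly half above 10 with mean activity above 10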;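 also: effector caspase 3 and 7 activity cleaving a DEVD luciferin substrate; 50 nL library stock added to about 30 µL; numbers are from one replicate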
BJeLR viability: compounds reducing viability of BJeLR cells; BJeLR fibroblasts viability, CellTiterGlo ATP luminescence, 48 h; HRASV12, hTERT and SV40 LT/ST transformed; viability loss activity score, % (no concentration beside the values); 0.64% of 30,000 active; AID 2275; in the data active = viability loss activity score above about 50%; about a fifth of its hits are not listed in these tables;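 also: higher score means fewer live cells and less ATP luminescence; stock transfer was 50 or 100 nL into about 30 µL; 0% = vehicle wells and 100% = a reference killing control; one replicate is shown; the record names a cut of 85%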
Numbers without * were called inactive; . = not tested or not shown. Not all compounds are listed; count on the stated rates, not on these rows.

Structure	A1 inh	BJeLR viability
C[C@H]1CN([C@@H](C)CO)C(=O)c2cc(N(C)C)ccc2O[C@@H]1CN(C)Cc1ccc(-c2ccccc2)cc1	0.6	-2.3
C[C@@H]1CN([C@H](C)CO)C(=O)c2cccc(NC(=O)Nc3ccccc3)c2O[C@H]1CN(C)C(=O)Nc1ccc2c(c1)OCO2	.	0.1
C[C@@H]1CN([C@H](C)CO)C(=O)c2cc(NC(=O)c3ccncc3)ccc2O[C@@H]1CN(C)CC1CCCCC1	0.1	0.9
C[C@H](CO)N1C[C@H](C)[C@H](CN(C)S(C)(=O)=O)Oc2c(NC(=O)C3CC3)cccc2C1=O	.	1.3
Cc1cc(N2CCC(C)CC2)nc2cccc(O)c12	.	4.4
COC(CNC(=O)c1cnn2c(C)c(Cc3c(C)cc(C)cc3C)c(C)nc12)OC	-0.9	8.3
O=CNc1nonc1NC(=O)c1ccccc1Cl	-0.6	9.9
C=C1C(C2(C)C=CC(=O)C(C)(C)C2CC(=O)OC)CC[C@@]2(C)[C@H](c3ccoc3)OC(=O)C3OC132 (stereo partly drawn)	0.1	91*
Cc1cc(NC(=O)NCCNc2ncccc2C(F)(F)F)c(C(F)(F)F)o1	.	-1.9
Cc1noc(C)c1NC(=O)Nc1cccc2c1O[C@@H](CN(C)Cc1ccccc1)[C@H](C)CN([C@@H](C)CO)C2=O	.	-3.3
C[C@@H]1CN([C@H](C)CO)C(=O)c2cccc(NS(C)(=O)=O)c2O[C@@H]1CN(C)CC1CC1	.	-1.3
C[C@H](CO)N1C[C@H](C)[C@@H](CN(C)S(C)(=O)=O)Oc2ccc(NC(=O)CCC(F)(F)F)cc2C1=O	0.7	1.4
Cc1ccc(S(=O)(=O)N(C)C[C@H]2Oc3ccc(NC(=O)CCCCCC(=O)Nc4ccccc4N)cc3C(=O)N([C@H](C)CO)C[C@H]2C)cc1	.	7.3
COCCN1C(=O)/C(=C/c2sccc2C)SC1=S	-0.9	3.4
CNC[C@@H]1Oc2ccc(NS(=O)(=O)c3ccc(F)cc3)cc2C(=O)N([C@H](C)CO)C[C@@H]1C	-0.1	0.4
C[C@H](CO)N1C[C@H](C)[C@@H](CN(C)C(=O)NC2CCCCC2)Oc2c(NC(=O)Nc3ccc(F)cc3)cccc2C1=O	.	-3.0
C[C@H](CO)N1C[C@H](C)[C@@H](CN(C)C(=O)Nc2ccc(F)cc2)Oc2c(NS(=O)(=O)c3ccc(Cl)cc3)cccc2C1=O	.	-0.5
CC(C)(C)c1ccc(N=Cc2ccccc2O)cc1	.	-3.6
Cc1ccc(-n2nc(C(=O)N3CCCC3)c3c4ccccc4n(C)c3c2=O)cc1	.	-0.2
C[C@H]1CN([C@@H](C)CO)C(=O)c2cccc(NC(=O)C3CC3)c2O[C@H]1CN(C)Cc1ccncc1	.	6.4
CCOC(=O)c1c(/N=C/c2ccccc2O)sc(C)c1C	-0.5	-5.2
CC(C)(C)c1ccc(-c2noc(CCn3c(=O)oc4ccccc43)n2)cc1	-0.7	2.7
COc1ccc(NC(=O)N(C)C[C@H]2Oc3c(NC(=O)Nc4ccc(C(F)(F)F)cc4)cccc3C(=O)N([C@H](C)CO)C[C@@H]2C)cc1	.	1.2
CCCC1CCC(C(=O)NC(C(=O)O)C(C)C)CC1 (stereo not drawn)	.	6.6
CC1(C)Cc2cccc(C(=O)Nc3ccc(C(F)(F)F)cc3)c2O1	0.2	-0.6
CC(C)c1ccc(NC(=O)C(c2ccccc2)N(C)C(=O)Cc2cccs2)cc1 (stereo not drawn)	.	0.0
O=C1Sc2ccc(S(=O)(=O)Nc3ccc(Br)cc3)c3cccc1c23	.	-0.3
CC(C)NC(=O)N(C)C[C@H]1Oc2ccc(NS(C)(=O)=O)cc2C(=O)N([C@H](C)CO)C[C@H]1C	0.9	-1.8
COc1cccc(CN2CCc3[nH]c(=S)[nH]c(=O)c3C2)c1	.	-5.1
O=CNC1c2ccccc2Oc2ccccc21	2.0	0.9
Cc1ccc(S(=O)(=O)N(C)C[C@H]2Oc3ccc(NC(=O)Nc4ccc(C(F)(F)F)cc4)cc3C(=O)N([C@H](C)CO)C[C@@H]2C)cc1	-0.2	-3.8
C=C(C)[C@H]1C[C@@]2(C)C(=CC1=O)CC[C@@H](O)[C@@H]2C	-0.5	-4.6
COc1ccc(S(=O)(=O)N(C)C[C@@H]2Oc3ccc(NC(=O)Nc4ccc(C(F)(F)F)cc4)cc3C(=O)N([C@H](C)CO)C[C@@H]2C)cc1	-0.6	4.6
N#C/C(C(N)=O)=C1/CCc2ccccc2N1	0.0	-1.7
CC(C)NC(=O)Nc1ccc2c(c1)C(=O)N([C@H](C)CO)C[C@H](C)[C@H](CN(C)S(=O)(=O)c1ccc(F)cc1)O2	-0.3	1.9
Cc1ccc(S(=O)(=O)Nc2ccc3c(c2)C(=O)N([C@H](C)CO)C[C@H](C)[C@@H](CN(C)Cc2ccncc2)O3)cc1	0.1	2.3
Cc1cc2ncn(C(C)c3ccccc3)c2cc1C (stereo not drawn)	-0.9	-3.2
C[C@H]1CN([C@@H](C)CO)C(=O)c2cccc(NC(=O)c3ccncc3)c2O[C@H]1CN(C)C(=O)Nc1ccc(F)cc1	.	-3.8
C[C@H](CO)N1C[C@H](C)[C@@H](CN(C)S(=O)(=O)c2cn(C)cn2)Oc2c(NS(=O)(=O)c3ccccc3)cccc2C1=O	.	-1.1
CCC(C)NC(=O)C1CCC(=O)N1CCc1ccccc1 (stereo not drawn)	0.4	0.8
Cc1noc(C)c1S(=O)(=O)Nc1cccc2c1O[C@@H](CN(C)CC1CC1)[C@@H](C)CN([C@H](C)CO)C2=O	.	-4.7
COc1c(O)cc2occ(-c3ccccc3O)c(=O)c2c1O	-6.4	0.9
Cn1c(Cn2c(=O)sc3ccccc32)nnc1SCC(=O)NCc1ccccc1Cl	0.1	0.3
C[C@H](CO)N1C[C@H](C)[C@H](CN(C)Cc2ccc(C(F)(F)F)cc2)Oc2c(NC(=O)c3cnccn3)cccc2C1=O	.	-7.5
C[C@H](CO)N1C[C@H](C)[C@@H](CN(C)Cc2ccc(-c3ccccc3)cc2)Oc2c(NS(=O)(=O)c3cccs3)cccc2C1=O	.	-2.5
Cc1cc(C(=O)Nc2cccc3c2O[C@@H](CN(C)S(=O)(=O)c2cccs2)[C@@H](C)CN([C@@H](C)CO)C3=O)n(C)n1	.	-8.6
Cc1noc(C)c1NC(=O)N(C)C[C@H]1Oc2c(cccc2N(C)C)C(=O)N([C@@H](C)CO)C[C@H]1C	.	-7.8
C[C@@H]1CN([C@@H](C)CO)C(=O)c2cc(NC(=O)Nc3ccc(F)cc3)ccc2O[C@H]1CN(C)S(=O)(=O)c1ccccc1	0.3	1.4
Cc1ccc(S(=O)(=O)Nc2ccc3c(c2)C(=O)N([C@@H](C)CO)C[C@@H](C)[C@H](CN(C)Cc2ccc(Oc4ccccc4)cc2)O3)cc1	1.3	-2.9
COc1ccc(NC(=O)Nc2ccc3c(c2)C(=O)N([C@H](C)CO)C[C@@H](C)[C@@H](CN(C)Cc2ccc(C(=O)Nc4ccccc4N)cc2)O3)cc1	.	-0.8
C[C@H]1CN([C@@H](C)CO)C(=O)c2cc(NC(=O)Nc3ccc(C(F)(F)F)cc3)ccc2O[C@@H]1CN(C)C(=O)Nc1ccc2c(c1)OCO2	-0.6	-2.5
O=C(/C=C/c1ccccc1)O[C@@H]1O[C@H](CO)[C@@H](O)[C@H](O)[C@H]1O	-0.9	-3.8
Cc1noc(C)c1S(=O)(=O)Nc1ccc2c(c1)C(=O)N([C@H](C)CO)C[C@@H](C)[C@@H](CN(C)S(=O)(=O)c1ccc(F)cc1)O2	0.2	0.9
OC(CNCc1ccc(Cl)cc1Cl)Cn1c(-c2ccc(F)cc2)cc2ccccc21 (stereo not drawn)	.	-2.4
Cc1noc(C)c1NC(=O)Nc1ccc2c(c1)C(=O)N([C@@H](C)CO)C[C@H](C)[C@@H](CN(C)S(=O)(=O)c1cccs1)O2	0.4	4.3
COc1cc2c(cc1OC)-c1c(C#N)c(-c3ccc(C)cc3)c(C(=O)c3cccs3)n1CC2	0.1	-0.3
Cc1oc(C(C)(C)C)cc1C(=O)NCc1csc(-c2cccs2)n1	0.8	0.5
O=C1CCc2cc(S(=O)(=O)NCc3ccccc3)ccc2N1	.	-2.7
S=C(Nc1ccccc1Cl)N(CCN1CCCCCC1)Cc1cccs1	.	-5.1
CCn1c(=O)c2cc(C(=O)NCC(OC)OC)sc2c2ccccc21	.	0.3

Other structures follow:
Structure	A1 inh	BJeLR viability
COc1ccc(C2C(C(=O)NC3CCCCCC3)CCC(=O)N2c2ccc(OC)cc2)cc1 (stereo not drawn)	.	0.1
Cc1ccc(S(=O)(=O)Nc2ccc3c(c2)C(=O)N([C@H](C)CO)C[C@H](C)[C@@H](CN(C)Cc2ccc(C(=O)O)cc2)O3)cc1	-0.1	5.2
COc1ccc(CN(C)C[C@@H]2Oc3ccc(NC(=O)Cc4ccccc4)cc3C(=O)N([C@@H](C)CO)C[C@H]2C)cc1	-0.5	-1.9
O=C(Nc1sc2c(c1C(=O)O)CCCC2)c1ccc(Br)cc1	-3.0	0.0
O=C1N/C(=C/c2ccccc2)C(=O)N1c1cccc(Cl)c1	-0.2	14
CN1C(=O)S/C(=C\c2ccccc2OCc2ccc(C(=O)O)cc2)C1=O	0.5	1.4
CN1CCN(c2ccc(CNS(=O)(=O)c3cccc4nonc34)cc2)CC1	0.6	3.9
CCOC(=O)N1CCN(C(=O)c2cccn3c(=O)c4cc5ccccc5cc4nc23)CC1	-0.9	-4.9
COc1ccc(S(=O)(=O)N(C)C[C@H]2Oc3ccc(NC(=O)CCCN(C)C)cc3C(=O)N([C@H](C)CO)C[C@@H]2C)cc1	-0.4	1.7
COC(=O)C1=CN(C2CC2)C=C(C(=O)OC)C1c1ccccc1	-0.4	3.1
O=c1c2ccccc2nc(SCc2ccc(Cl)cc2)n1CC1COc2ccccc2O1 (stereo not drawn)	0.7	0.2
C[C@@H]1CN([C@@H](C)CO)C(=O)c2cccc(NC(=O)c3ccc(-c4nccs4)cc3)c2O[C@@H]1CN(C)Cc1ccccc1	.	0.1
Cn1ncc(Br)c1-c1nc2ccccc2[nH]1	-1.6	1.3
COc1cccc(C=Nc2cccc(C(=O)O)c2C)c1O	-0.6	-7.0
C[C@H]1CN([C@@H](C)CO)C(=O)c2cccc(NS(=O)(=O)c3cccs3)c2O[C@@H]1CN(C)CC1CC1	.	1.0

3 structures out of the list, ordered by SMILES length, rising:
Structure	A1 inh	BJeLR viability
COc1cc2c(cc1OC)-c1c(C#N)c(-c3ccc(C)cc3)c(C(=O)c3cccs3)n1CC2	0.1	-0.3
CNC[C@@H]1Oc2ccc(NS(=O)(=O)c3ccc(F)cc3)cc2C(=O)N([C@H](C)CO)C[C@@H]1C	-0.1	0.4
Cc1ccc(S(=O)(=O)Nc2ccc3c(c2)C(=O)N([C@@H](C)CO)C[C@@H](C)[C@H](CN(C)Cc2ccc(Oc4ccccc4)cc2)O3)cc1	1.3	-2.9

Next part.
Structure	A1 inh	BJeLR viability
C[C@H](CO)N1C[C@H](C)[C@H](CN(C)CC2CC2)Oc2c(NS(=O)(=O)c3cccs3)cccc2C1=O	.	2.3
CCOC(=O)c1sc(=S)n(-c2ccc(OC)c(Cl)c2)c1N	0.6	-2.9
COc1cccc(NC(=S)NC(Cc2ccccc2)c2ccccc2)c1 (stereo not drawn)	-0.4	-3.8
Fc1cccc(Cl)c1CSc1ccccc1C1=NCCCN1	-0.1	3.1
C[C@H]1CN([C@@H](C)CO)C(=O)c2cc(NC(=O)CCN3CCOCC3)ccc2O[C@@H]1CN(C)S(=O)(=O)c1ccc(Cl)cc1	-0.2	0.9
Cc1noc(C)c1NC(=O)N(C)C[C@H]1Oc2c(NC(=O)C3CCOCC3)cccc2C(=O)N([C@H](C)CO)C[C@H]1C	.	-2.8
C[C@@H]1CN([C@@H](C)CO)C(=O)c2cccc(NC(=O)c3nc4ccccc4s3)c2O[C@@H]1CN(C)Cc1ccc2c(c1)OCO2	.	-4.2
Cc1noc(C)c1S(=O)(=O)Nc1ccc2c(c1)C(=O)N([C@H](C)CO)C[C@H](C)[C@H](CN(C)Cc1ccc(Cl)c(Cl)c1)O2	-0.2	-0.6
CC1(C)c2ccccc2N2CC(=O)NC21/C=C/c1ccc(F)cc1 (stereo not drawn)	0.0	-2.7
C=C(C)[C@@H]1CC[C@]2(C(=O)O)CC[C@]3(C)[C@H](CCC4[C@]5(C)C(CC[C@]43C)[C@@](C)(CO)[C@@H](O)[C@@H]5C(=O)O)C12 (stereo partly drawn)	-0.5	-2.3
C[C@H](CO)N1C[C@H](C)[C@H](CN(C)S(=O)(=O)c2ccc(F)cc2)Oc2c(NS(=O)(=O)c3ccccc3)cccc2C1=O	.	6.4
C[C@@H]1CN([C@@H](C)CO)C(=O)c2cc(NS(=O)(=O)c3ccc(F)cc3)ccc2O[C@H]1CN(C)S(=O)(=O)c1cccs1	1.4	2.3
COc1ccc(-c2cc(C(F)(F)F)nc(N3CCCCCC3)n2)cc1	.	5.0

Compound profiles, from the list above. Order of values: A1 inh | BJeLR viability
Cc1noc(C)c1NC(=O)N(C)C[C@H]1Oc2c(NC(=O)C3CCOCC3)cccc2C(=O)N([C@H](C)CO)C[C@H]1C is listed with . | -2.8
CCOC(=O)c1sc(=S)n(-c2ccc(OC)c(Cl)c2)c1N is listed with 0.6 | -2.9
